# Source: PubChem BioAssay
# 2A firefly – FMDV 2A StopGo reporter, firefly signal | HEK cells with a luciferase reporter of 2A StopGo recoding | 120,000 compounds, 0.23% hits | Potency, µM (doses to about 57.5 µM), without a hit: top-dose signal change, negative = less light | AID 1745856; active = well fitted falling curve with a large enough effect; inconclusive = small, poorly fitted or top-dose-only effect; inactive = no such curve, though single readings can be large or run the other way; also: nearly all actives have a fitted effect of over 60% in size; overnight with compound
# 2A Renilla – FMDV 2A StopGo reporter, Renilla signal | 120,000 compounds, 0.32% hits | HEK cells with a luciferase reporter of 2A StopGo recoding | Potency, µM (doses to about 57.5 µM), inactives show top-dose signal change, negative = less light; active means well fitted falling curve with a large enough effect; inconclusive means small, poorly fitted or top-dose-only effect; inactive means no such curve, though single readings can be large or run the other way; also: nearly all actives have a fitted effect of over 55% in size; overnight with compound
# The depositor's hits bear a star; ? = inconclusive; [ ] = dose if it differs, or a comment. % is scaled to controls: 0 for no effect and ±100 for the full control effect; potency is read from the fitted curve at half-maximal effect.
cpd	mol	2A firefly	2A Renilla
1	CC(C(=O)NC(=O)NC12CC3CC(CC(C3)C1)C2)n1cnc2c1c(=O)n(C)c(=O)n2C (centres undefined)	-1%	-6%
2	COc1cc(C(=O)NCCc2csc(-c3ccccn3)n2)cc(OC)c1OC	0%	25%
3	CCCCOCCCNC(=O)c1ccc2nc(C)c(C)nc2c1	0%	-2%
4	CC1CCC(NC(=O)c2csc3c2CCCCC3)CC1 (centres undefined)	45%	0%
5	CCCCOc1ccc(NC(=O)CC)c2cccnc12	7%	-7%
6	CC(C)(C)C(=O)NCCSCc1ccsc1	16%	7%
7	CCc1ccc(C(NC(=O)c2nn(C)c(=O)c3ccccc23)C(C)C)cc1 (centres undefined)	-15%	4%
8	Cc1oc(-c2ccc(Cl)cc2)nc1CSCC(=O)NCc1ccccc1Cl	-1%	-9%
9	COc1ccc(-c2[nH]nc3c2C(c2ccc4c(c2)OCO4)CC(=O)O3)cc1 (centres undefined)	-3%	-4%
10	CC(C)CCNC(=O)NC(=O)COC(=O)CCCc1c[nH]c2ccccc12	-10%	-13%

# Other records:
cpd	mol	2A firefly	2A Renilla
11	COCCn1c(C)cc(C(=O)C(=O)Nc2nnc(COc3ccc(C)c(C)c3)s2)c1C	17%	1%
12	CCn1nc(C(=O)Nc2nc(-c3ccc(NC(C)=O)cc3)cs2)c2ccccc2c1=O	?	?
13	CCOCCn1ccc2c(OCC(=O)Nc3cccc([N+](=O)[O-])c3)cccc2c1=O	-3%	7%
14	Cc1ccc(-n2ncc(C(=O)NC3CCN(Cc4ccccc4)CC3)c2C2CCN(C(=O)OC(C)(C)C)CC2)cc1C	-13%	3%
15	COCCNC(=O)COc1cc(O)c2c(=O)cc(-c3ccccc3)oc2c1	0%	-4%
16	CCOC(=O)c1c(C)[nH]c(C)c1S(=O)(=O)N1CCC(C(=O)N2CCN(c3ccccc3)CC2)CC1	-20%	14%
17	O=C(c1nc2nc(-c3ccco3)cc(C(F)(F)F)n2n1)N1CCOCC1	4%	-5%
18	CN(Cc1ccccc1)C(=O)CSc1nc2ccsc2c(=O)n1-c1ccc(F)cc1	30%[activator]	99%[activator]
19	CCCCNC(=O)c1ccc2nc[nH]c2c1	0%	14%
20	FC(F)(F)c1cccc(/C=C/c2nc3c(ccc4ccccc43)s2)c1	0%	6%

# The list goes on:
cpd	mol	2A firefly	2A Renilla
21	CCc1ccc(-c2[nH]c3c(c2-c2ccc(OC)cc2)c(=O)[nH]c(=O)n3C)cc1	4%	7%
22	CN1C[C@@H]2C[C@H]1CN2c1cc2c(cc1F)c(=O)c(C(=O)O)cn2C1CC1	-16%[27 µM]	-8%[23.8 µM]
23	O=C(Cn1c(=O)n(-c2ccc(F)cc2)c(=O)c2sc3ccccc3c21)NC1CCCCC1	0%	-9%
24	O=C(O)/C(=C\c1cccnc1)NC(=O)c1ccccc1	?	?
25	COc1ccccc1-c1noc(COC(=O)c2ccc3c(c2)NC(=O)CS3)n1	5%	5%
26	CCCCCc1ccc(OC(=O)c2ccc(-c3ccc(CC)cn3)cc2)cc1	55%[activator]	11%
27	CCCn1nnc(NC(=O)c2ccccc2OC)n1	0%	4%
28	CC(Sc1nnc(Nc2ccccc2)s1)C(=O)N(C)c1ccccc1 (centres undefined)	19%	21%
29	COc1ccc(NC(=O)CN(C)S(=O)(=O)c2ccc(C(=O)N3CCOCC3)s2)cc1	-12%	-14%
30	CCOCCCNC(=O)c1cc2cc(S(=O)(=O)N(C)C)ccc2n1CC	19%	7%

# Additional compounds
cpd	mol	2A firefly	2A Renilla
31	C/C=C/C=C/C(=O)Nc1ccc(C(C)(C)C)cc1	13%	9%
32	CC1Cc2cc(S(=O)(=O)N3CCN(c4ccccc4F)CC3)ccc2N1C(=O)C1CCC1 (centres undefined)	-6%	-12%
33	Clc1ccccc1-c1nc(N2CCCC2)c2ccccc2n1	-2%	-15%
34	C/C(=N/Nc1ccc(S(N)(=O)=O)cc1[N+](=O)[O-])c1cccc(C(F)(F)F)c1	-5%	-19%
35	Cc1ccc(OCCn2nc(C(=O)O)c3ccccc3c2=O)cc1	-12%	-14%
36	Clc1cccc(CSc2nc3ncccc3[nH]2)c1	126%[activator]	10%
37	CCOc1ccc(CNC(=O)c2cc3c(s2)-c2ccccc2OC3)cc1	68%[activator]	41%[activator]
38	Cc1nc2scc(C)n2c(=O)c1S(=O)(=O)NCc1ccccc1Cl	1%	-4%
39	Cc1cc(C)n2nc(C(=O)OC(C)C(=O)c3c[nH]c4ccccc34)nc2n1 (centres undefined)	16%	-3%
40	COC(=O)c1ccc(C2c3c(oc4ccccc4c3=O)C(=O)N2c2nc(C)c(C(=O)OC)s2)cc1 (centres undefined)	-6%	-7%

# New compounds follow:
cpd	mol	2A firefly	2A Renilla
41	Cc1ccccc1CN1C(=O)c2ccccc2Sc2ccc(C(=O)OCc3ccco3)cc21	7%	20%
42	CCN1CCOC(=O)C1CC(=O)Nc1cc(Cl)ccc1OC (centres undefined)	-25%	-28%
43	O=C(COCc1cc(-c2cccs2)on1)NCc1cccc(Cl)c1	-10%	-7%
44	CCc1ccc(C(=O)c2c(N)c(-c3nc4ccccc4[nH]3)c3ccccn23)cc1	13%	-28%
45	COc1ccc(CCNC(=O)CSc2ccc(-c3ccccn3)nn2)cc1	5%	-7%
46	CCCOc1ccc(C(=O)Nc2cccc(NC(=O)c3cccc(Cl)c3)c2)cc1	45%[activator]	-3%
47	Nc1nc(CN2CCN(C(=O)CNC(=O)c3ccc(OC(F)F)cc3)CC2)nc2ccccc12	-4%	-12%
48	CCOc1ccc2nc(N3CCC(C(=O)NCCc4ccc(OC)cc4OC)CC3)sc2c1	172%[activator]	1%
49	Cn1c(=O)c2c(nc(Oc3ccc(F)cc3)n2Cc2ccccc2F)n(C)c1=O	-3%	0%
50	Cc1nn(C(=O)c2ccccc2)c(C)c1Sc1ccc(Cl)cc1	?	?

# Other records follow:
cpd	mol	2A firefly	2A Renilla
51	COCCn1c(SCc2nc(-c3ccc(C)cc3)no2)nc2ccsc2c1=O	?	?
52	COc1ccc(Cl)cc1NC(=O)c1nc2ccccc2nc1N1CCCC1	12%	0%
53	Cc1ccc(-c2nc(Nc3ccc(O)cc3)c3ccccc3n2)cc1	13%	?
54	CC(=O)c1cccc(NC(=O)Cn2c(=O)oc3cc(S(=O)(=O)NCc4ccccc4)ccc32)c1	13%	96%[activator]
55	COC(=O)C1(NC(=O)COc2cccc(F)c2)CCCCC1	2%	12%
56	CCN(CC)C(CNS(=O)(=O)c1ccc(C#N)cc1)c1ccsc1 (centres undefined)	4%	19%
57	Cc1ccccc1C(=O)Nc1ccc(C(=O)OCc2cc(=O)n3nc(C4CC4)sc3n2)cc1	?	-28%
58	CCc1ccc(C(=O)NC(Cc2c[nH]c3ccccc23)C(=O)OCC(=O)c2ccc(Br)cc2)cc1 (centres undefined)	10%	-11%
59	N#CC1=C(N)OC2=C(C(=O)CCC2)C1c1ccc(-c2ccccc2)o1 (centres undefined)	-6%	9%
60	COc1cc(/C=C2/NC(=O)NC2=O)cc(Br)c1OCc1cccc(F)c1	23%	16%

# Laid out differently: results already given
# Values run as follows: 2A firefly, 2A Renilla
33) Clc1ccccc1-c1nc(N2CCCC2)c2ccccc2n1
 : -2%, -15%
34) C/C(=N/Nc1ccc(S(N)(=O)=O)cc1[N+](=O)[O-])c1cccc(C(F)(F)F)c1
 : -5%, -19%
35) Cc1ccc(OCCn2nc(C(=O)O)c3ccccc3c2=O)cc1
 : -12%, -14%
36) Clc1cccc(CSc2nc3ncccc3[nH]2)c1
 : 126%[activator], 10%
37) CCOc1ccc(CNC(=O)c2cc3c(s2)-c2ccccc2OC3)cc1
 : 68%[activator], 41%[activator]
38) Cc1nc2scc(C)n2c(=O)c1S(=O)(=O)NCc1ccccc1Cl
 : 1%, -4%
39) Cc1cc(C)n2nc(C(=O)OC(C)C(=O)c3c[nH]c4ccccc34)nc2n1 (centres undefined)
 : 16%, -3%
40) COC(=O)c1ccc(C2c3c(oc4ccccc4c3=O)C(=O)N2c2nc(C)c(C(=O)OC)s2)cc1 (centres undefined)
 : -6%, -7%
41) Cc1ccccc1CN1C(=O)c2ccccc2Sc2ccc(C(=O)OCc3ccco3)cc21
 : 7%, 20%
42) CCN1CCOC(=O)C1CC(=O)Nc1cc(Cl)ccc1OC (centres undefined)
 : -25%, -28%
43) O=C(COCc1cc(-c2cccs2)on1)NCc1cccc(Cl)c1
 : -10%, -7%
44) CCc1ccc(C(=O)c2c(N)c(-c3nc4ccccc4[nH]3)c3ccccn23)cc1
 : 13%, -28%
45) COc1ccc(CCNC(=O)CSc2ccc(-c3ccccn3)nn2)cc1
 : 5%, -7%
46) CCCOc1ccc(C(=O)Nc2cccc(NC(=O)c3cccc(Cl)c3)c2)cc1
 : 45%[activator], -3%
47) Nc1nc(CN2CCN(C(=O)CNC(=O)c3ccc(OC(F)F)cc3)CC2)nc2ccccc12
 : -4%, -12%
48) CCOc1ccc2nc(N3CCC(C(=O)NCCc4ccc(OC)cc4OC)CC3)sc2c1
 : 172%[activator], 1%
49) Cn1c(=O)c2c(nc(Oc3ccc(F)cc3)n2Cc2ccccc2F)n(C)c1=O
 : -3%, 0%
50) Cc1nn(C(=O)c2ccccc2)c(C)c1Sc1ccc(Cl)cc1
 : ?, ?
51) COCCn1c(SCc2nc(-c3ccc(C)cc3)no2)nc2ccsc2c1=O
 : ?, ?
52) COc1ccc(Cl)cc1NC(=O)c1nc2ccccc2nc1N1CCCC1
 : 12%, 0%
53) Cc1ccc(-c2nc(Nc3ccc(O)cc3)c3ccccc3n2)cc1
 : 13%, ?
54) CC(=O)c1cccc(NC(=O)Cn2c(=O)oc3cc(S(=O)(=O)NCc4ccccc4)ccc32)c1
 : 13%, 96%[activator]
55) COC(=O)C1(NC(=O)COc2cccc(F)c2)CCCCC1
 : 2%, 12%
56) CCN(CC)C(CNS(=O)(=O)c1ccc(C#N)cc1)c1ccsc1 (centres undefined)
 : 4%, 19%
57) Cc1ccccc1C(=O)Nc1ccc(C(=O)OCc2cc(=O)n3nc(C4CC4)sc3n2)cc1
 : ?, -28%

# Next section
cpd	mol	2A firefly	2A Renilla
61	CCc1ccc(CNc2ncnc3onc(-c4ccc(Cl)cc4)c23)cc1	0%	-15%
62	Cc1cc(Cl)ccc1NC(=O)CCCn1nc(C)c2c(C)n(-c3ccccc3)nc2c1=O	-6%	1%
63	N#CCCCSc1ccc(C(F)(F)F)cn1	-3%	7%
64	COc1ccc(CNC(=O)CCc2c(C)nn(-c3ccc(N4CCOCC4)nn3)c2C)cc1	15%	0%
65	Cc1cccc(CN2CCN(c3nc4c([nH]3)c(=O)n(C)c(=O)n4C)CC2)c1	5%	-7%
66	Cc1ccc(Cl)cc1N1CCN(C(=O)CN2C(=O)CSc3c2c(C)nn3-c2ccccc2)CC1	-18%	0%
67	CCc1nn(CC(=O)NCCc2ccc(OC)cc2OC)c(=O)c2cc3sccc3n12	-17%	2%
68	O=C(COc1ccccc1)N(Cc1cccnc1)c1nc2c(F)cccc2s1	123%[activator]	128%[activator]
69	Cc1oc(-c2ccccc2)nc1C(=O)OC(C)C(=O)N(C)C1CCCCC1 (centres undefined)	-23%	-32%
70	CCc1ccc(NS(=O)(=O)c2cc(Br)cc3c2N(C(C)=O)CC3)cc1	-9%	-2%

# (listing goes on)
cpd	mol	2A firefly	2A Renilla
71	CCC(C)NC(=O)CN1C(=O)N(c2c(C)cccc2C)S(=O)(=O)c2ccccc21 (centres undefined)	5%	12%
72	CC1CCN(S(=O)(=O)c2ccc3c(c2)N(CC(=O)NC(C)c2ccccc2)C(=O)CS3)CC1 (centres undefined)	-21%	17%
73	COc1cc(C=O)ccc1OC(=O)c1cccs1	13%	2%
74	CCOC(=O)C1CCN(Cc2cc(=O)oc3c(C)cc(C)cc23)CC1	8%	12%
75	COc1ccc(NC(=O)c2sc3nc(C(F)(F)F)cc(C)c3c2N)cc1OC	-13%	-11%
76	Cc1oc(-c2cccs2)nc1C(=O)N1CCCCCC1	10%	18%
77	COC(=O)c1c(NC(=O)CSc2ccccn2)sc2c1CCC2	0%	54%[activator]
78	CC(=O)N(c1cccc(C(F)(F)F)c1)c1nc(CSc2nnc(C3CC3)n2C2CC2)cs1	0%	19%
79	O=C(Cn1nc(-c2ccc(F)cc2)ccc1=O)N1CCc2ccccc2C1	14%	-3%
80	CCN1C(=O)COc2ccc(-c3csc(NC(=O)c4ccco4)n3)cc21	?	?

# Next part.
cpd	mol	2A firefly	2A Renilla
81	CC1C(=O)Nc2ccc(S(=O)(=O)NCc3ccc(N(C)C)cc3)cc2NC1=O (centres undefined)	31%[activator]	18%
82	CCOC(=O)C(C#N)=C1SC(C(=O)OCC)C(C(=O)OCC)S1 (centres undefined)	27%	12%
83	CCOc1ccc(-c2nc(C#N)c(NCCN3CCOCC3)o2)cc1	13%	0%
84	Cc1cccc(CSc2ncc(Cl)c(C(=O)Nc3sc4c(c3C#N)CCCC4)n2)c1	0%	3%
85	CCOC(=O)C1CCCN(C(=O)Cn2nc(C)n3c(cc4c(OC)cccc43)c2=O)C1 (centres undefined)	2%	9%
86	CCCC(=O)N1CCCN(C(C)C(=O)Nc2cccc(F)c2)CC1 (centres undefined)	6%	3%
87	CCN(CC)C(=O)c1ccc(N2C(=O)CCS2(=O)=O)cc1Cl	3%	-12%
88	Cn1ccc2c(OCC(=O)NCc3ccccc3Cl)cccc2c1=O	27%	84%[activator]
89	CCc1ccc(CNC(=O)c2ccc(CS(=O)(=O)Cc3ccccc3C)o2)cc1	?	?
90	COc1ccc(OC)c(NC(=O)Nc2cc(-c3nc4ccccc4o3)ccc2OC)c1	148%[activator]	6%

# The list is partial; count on the stated rates, not on these rows.
